Autofluor counter: compound fluorescence in toxin protease inhibitor counterscreen; compound autofluorescence counterscreen, microsphere flow cytometry; stronger effect = higher value; fluorescence intensity (no concentration beside the values); 360,000 tested, 3.1% active; AID 624483;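 active = at least 3 SD above the mean of all compounds, about 16000 in these data; inconclusive = too few beads counted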;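 note: 100 nL of 1 mM stock went into each well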
Mtb hypoxia rep: inhibitors of hypoxia-regulated fluorescent reporter in Mycobacterium tuberculosis | M. tuberculosis hypoxia-regulated fluorescent reporter, fluorescence | AID 1159583 | 300,000 tested, 0.1% active | fluorescence inhibition, % (no concentration beside the values);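 active = 35 to 45% if threefold the growth effect, above 45% if 1.5-fold the growth effect; inactive = the rest, general growth blockers included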;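 note: wells of about 50 µL received 100 nL stock; 0% = vehicle wells and 100% = reference inhibitor wells; whole bacteria with a GFP reporter of the hypoxia response; strong numbers were not always called active; many hits fall short of the cut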
PrP 5UTR inh: suppresses PrP 5' UTR mRNA reporter expression; cell-based PrP 5' UTR mRNA reporter, plate reader; inhibition, % (no concentration beside the values); 340,000 tested, 0.35% active;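 active = every replicate at 50% or more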;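 note: 0 = median of the neutral control wells; tested in H4 reporter cells; numbers are from one replicate; inactives centre near -14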
ugtP null kill: kills S. aureus RN4220 lacking UgtP | S. aureus RN4220 ugtP deletion, OD600 growth, 16 h; some inactives read as strong as hits | growth inhibition, % (concentration not given with the values) | 330,000 tested, 0.54% active;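 active = z-score under -3 and OD600 up to 0.15 on both plates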;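 note: plate controls were untreated wells for no effect and antibiotic for full effect; wells of about 80 µL received 100 nL stock; the first replicate is given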
RN4220 kill: kills Staphylococcus aureus RN4220; S. aureus RN4220 growth, OD600, 16 h; inhibition, % (concentration not given with the values); 330,000 tested, 0.33% active; AID 1259311;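 active = z-score of -3 or lower and OD600 up to 0.18 on both plates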;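 note: plate controls were untreated cells for no effect and reference antibiotic for full effect; stock transfer was 100 nL into about 80 µL; one replicate is shown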
BJeLR lethal: kills HRASV12-expressing BJeLR cells; AID 1554; 300,000 tested, 0.17% active; BJeLR (HRASV12) viability, CellTiter-Glo ATP luminescence, 48 h; reference of the scale not given here; inhibition, % (test concentration not listed);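 active = replicate mean above 50%; inconclusive = above 50% but judged a plate artefact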;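 note: 50 nL library stock added to about 25 µL; numbers are from one replicate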
Mtb hypoxia rep growth: also measured in Mtb hypoxia rep; calls as there; growth inhibition, %; measured here: M. tuberculosis growth (absorbance);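 0% = vehicle and 100% = reference antibiotic; read after six days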
* = called active by the depositor; ? = inconclusive; · = no result given. An unsorted share of the library. About 4% of those tested had a hit in this group.

Order of results: Mtb hypoxia rep growth | RN4220 kill | Mtb hypoxia rep | Autofluor counter | BJeLR lethal | ugtP null kill | PrP 5UTR inh
CC(C)CC(CCc1ccccc1)OS(N)(=O)=O (configuration not stated)
    10 | 14 | 6 | 3914 | -1 | 15 | -23
COc1ccc(-n2c(-c3cnccn3)n[nH]c2=S)cc1
    7 | 2.6 | 13 | 10760 | 0 | 8 | -30
CN(C)c1ccc(-n2cccc2/C=C/[N+](=O)[O-])cc1
    · | · | · | 3705 | 9 | · | -2
C=CCn1c(SCC(=O)NC(N)=O)nnc1-c1cc2c(s1)CCC(CC)C2 (configuration not stated)
    2 | 1.6 | -2 | 2217 | -25 | 22 | -13
Cc1ccc(C(=O)C(C)OC(=O)C2CCN(c3ccc(C(F)(F)F)cn3)CC2)cc1 (configuration not stated)
    -3 | -1.3 | -4 | · | · | 13 | -18
O=C(Nc1cccc(S(=O)(=O)N2CCCC2)c1)c1ccco1
    3 | 5.2 | -1 | 4702 | · | 1 | -20
O=C(O)CCc1ccc(-c2cccs2)n1NC(=O)c1ccc(Cl)cc1
    9 | 7.0 | 8 | 8536 | 3 | 0 | -21
O=C(CC1S/C(=N/N=C2CCCCCC2)NC1=O)Nc1ccccc1C(F)(F)F (configuration not stated)
    2 | 1.6 | 6 | 3676 | 9 | 5 | -25
CCCc1nn(C)c(C(=O)Nc2ccc(CC)cc2)c1Cl
    12 | 7.9 | -6 | 2472 | -19 | 7 | -26
COC(=O)C(C)C1C[C@@]1(C)C(NC(=O)OCc1ccccc1)c1ccccc1 (some centres not stated)
    1 | 5.1 | 4 | · | · | -1 | ·
COc1ccc(NS(=O)(=O)c2ccc(NC(=O)c3ccccc3Br)cc2)nn1
    9 | -2.1 | 0 | 3366 | 4 | 9 | -23
Cc1cc(C)n(-c2cc(Cl)cc(Cl)c2)c(=O)c1C#N
    4 | -13 | 9 | 3141 | 0 | -4 | -20
S=c1[nH]nc(COc2ccccc2)n1/N=C/c1ccccc1Br
    · | · | · | 3872 | 5 | · | 1
COC(=O)C1=C(c2cc3ccccc3s2)C[C@@H]2CC[C@H]1N2C(=O)NCc1ccc(C(F)(F)F)cc1
    · | · | · | 3835 | -7 | · | -40
CCN1C=C(C(=O)c2ccccc2)C(=O)CC1
    -1 | -1.6 | -6 | 3716 | · | 1 | 61*
Cc1nc(-c2ccc(C(=O)Nc3ccc(F)cc3)cc2)cs1
    9 | 1.4 | 5 | 2590 | · | -3 | -69
NC(=Nc1ccccc1)NC(=O)c1nc(Cl)c(N)nc1N
    9 | 6.8 | -1 | 5879 | 5 | -2 | -34
CCc1cc(=O)oc2c(CNCc3ccccc3F)c(O)c(Cl)cc12
    8 | 0.2 | 13 | 4061 | 9 | -3 | -15
CCCCN(CC)CCNC(=S)Nc1ccc2nc(N3CCN(C)CC3)cc(C)c2c1
    · | · | · | 3204 | 14 | · | -8
CCc1nc2ccccc2c(C(=O)Oc2ccc(C(=O)OC)cc2)c1C
    4 | 7.6 | 5 | 2172 | 1 | 7 | -29
O=C(N/C(=C/c1cccc([N+](=O)[O-])c1)C(=O)N1CCCC1)c1ccccc1
    11 | 0.7 | 13 | 5669 | 6 | 6 | -18
N#CC1(N2CCN(C(=O)c3ccccc3)CC2)CCCCC1
    8 | 6.7 | 11 | 4044 | -6 | 9 | -12
COc1cc(C(=O)Oc2c(OC)cc(C(=S)N3CCOCC3)cc2OC)cc(OC)c1OC
    4 | -0.9 | 8 | 3479 | 4 | 4 | -13
CN(C(=O)COC(=O)c1cccc(S(=O)(=O)N(C)c2ccccc2)c1)C1CCCCC1
    10 | 6.5 | 8 | ? | · | 8 | -4
Cn1c(=O)c2c(nc(N/N=C/c3ccncc3)n2Cc2ccccc2)n(C)c1=O
    · | · | · | 3773 | -4 | · | -15
O=C(OCC1OC(Oc2ccc(O)cc2)C(O)C(O)C1O)c1ccccc1 (configuration not stated)
    · | 2.1 | · | 4236 | 4 | 2 | -14
Cc1nc(C)c(C)nc1C
    4 | 5.9 | 11 | · | -2 | 1 | -20
CN(C)c1ncc(S(=O)(=O)c2ccccc2)c(N)n1
    10 | -2.0 | -7 | 1961 | -3 | -5 | -1
CSCCC(NC(=O)c1ccccc1Br)C(=O)NC(C)CCc1ccccc1 (configuration not stated)
    -6 | 3.1 | 3 | 4333 | 4 | 2 | 2
COc1ccc(C2C=CCN(CC3CC3)CC(=O)N2Cc2ccc(F)cc2)cc1 (configuration not stated)
    8 | 8.9 | 9 | · | · | -1 | ·
Cc1ccc(C(=O)N2CCN(S(=O)(=O)c3sc(C(=O)O)c(C)c3C(=O)O)CC2)s1
    11 | 2.2 | 1 | 3856 | · | 0 | 0
COc1ccc(N(C)C(=O)c2cc3c(s2)-c2ccc(Cl)cc2S(=O)(=O)C3)c(OC)c1
    -7 | 1.4 | 3 | 4650 | 7 | -1 | -17
Cc1c(OCC(=O)NCC(O)c2ccccc2)ccc2c(-c3ccccc3)cc(=O)oc12 (configuration not stated)
    · | -5.2 | · | 4230 | -2 | -1 | -21
O=C(N/C(=C/c1ccc(Br)cc1)C(=O)N1CCCC1)c1ccccc1F
    7 | 7.3 | 7 | 2185 | -8 | -5 | -34
O=C(CCCn1c(=O)[nH]c2ccccc2c1=O)N1CCN(c2ccccn2)CC1
    4 | 14 | 3 | 5699 | 10 | 14 | -16
Cc1nnc(N)s1
    8 | 2.4 | -5 | 6769 | -8 | -6 | -3
O=C(O)C1=NOC(CNc2ncc(C(F)(F)F)cc2Cl)C1 (configuration not stated)
    6 | 4.0 | 5 | 2383 | -6 | -4 | -16
Cc1ccc2c(c1)N(C(=O)CCC(=O)NCC(C)c1ccccc1)CC(C)O2 (configuration not stated)
    1 | 4.7 | 6 | 6356 | 2 | 3 | -18
Cc1ccnc(N/C=C/C(=O)c2ccc(Br)cc2)c1
    4 | 2.5 | 8 | 3552 | 7 | 2 | -26
S=c1[nH]nc(-c2ccccn2)n1N=Cc1ccc(-c2ccccc2Cl)o1
    6 | 0.5 | 15 | · | · | -4 | ·

Part of the list above, as tab-separated lines.
SMILES	Mtb hypoxia rep growth	RN4220 kill	Mtb hypoxia rep	Autofluor counter	BJeLR lethal	ugtP null kill	PrP 5UTR inh
Cc1nc(C)c(C)nc1C	4	5.9	11	·	-2	1	-20
Cc1ccnc(N/C=C/C(=O)c2ccc(Br)cc2)c1	4	2.5	8	3552	7	2	-26
O=C(CCCn1c(=O)[nH]c2ccccc2c1=O)N1CCN(c2ccccn2)CC1	4	14	3	5699	10	14	-16
Cn1c(=O)c2c(nc(N/N=C/c3ccncc3)n2Cc2ccccc2)n(C)c1=O	·	·	·	3773	-4	·	-15

(list continues)
Order of results: Mtb hypoxia rep growth | RN4220 kill | Mtb hypoxia rep | Autofluor counter | BJeLR lethal | ugtP null kill | PrP 5UTR inh
CCc1ccccc1NC(=O)CN(c1ccc(OC)cc1OC)S(=O)(=O)c1ccccc1[N+](=O)[O-]
    -3 | 9.9 | -2 | 4910 | -1 | 13 | -10
Cc1ccc(OC(=O)CCS(=O)(=O)c2ccc(C)cc2)cc1
    -4 | 3.6 | 5 | 4983 | 0 | 9 | 1
O=C(Cc1ccc(F)cc1)Nc1ccc(Cl)cn1
    14 | -0.9 | 19 | 3520 | 1 | 17 | -29
CC(C)CNC(=O)c1ccc2c(c1)C(=O)N(C1CCCCC1)C2=O
    1 | 4.5 | 9 | 3243 | -5 | 14 | -11
O=C1CCC(C(=O)N(c2ccccc2)C2(C(=O)NC3CCCCC3)CCCCC2)N1 (configuration not stated)
    · | -0.1 | · | 3957 | · | 10 | -15
COc1ccc(-c2[nH]ncc2CN(C)Cc2cnccn2)c(OC)c1
    -3 | -1.1 | -9 | 3858 | 9 | 3 | -73
N#Cc1ccc(OCC(=O)Nc2nc(-c3ccncc3)cs2)cc1
    -1 | 0.7 | 8 | · | · | 4 | ·
O=C(CCNC(=O)c1ccccc1)Nc1ccc(F)c(Cl)c1
    · | · | · | 2514 | 22 | · | -20
COc1ccc(C)cc1NC(=O)CSc1ccc(Cl)cc1
    2 | 11 | -3 | 2544 | 8 | 4 | -4
O=C1CN(C(=O)COc2ccc(Br)cc2Br)c2ccccc2N1
    5 | 3.0 | 6 | 3906 | -2 | 6 | -19
CC(=O)Oc1c(Cl)c(N2CCOCC2)c(OC(C)=O)c2ccccc12
    8 | 7.9 | 10 | 17480* | 1 | -3 | -87
CCc1ccc(-c2cc(C(=O)NN=Cc3ccccn3)[nH]n2)cc1
    5 | -1.0 | 1 | · | · | 1 | ·
Cc1nc(=O)c(-c2ccccc2)c(C)n1Cc1ccccc1
    1 | 5.3 | 6 | 11654 | 1 | 1 | -6
CCCc1cc(=O)[nH]c(SC/C=C/c2ccccc2)n1
    13 | 6.7 | 6 | 4334 | -5 | -13 | ·
CC(=O)COc1ccc2c(c1C)O/C(=C\c1ccco1)C2=O
    8 | 5.1 | -3 | 4424 | 9 | -8 | 2
C=CCNc1nc(Nc2ccc(OC)cc2OC)nc(OCC)n1
    · | 2.0 | · | 3241 | 1 | 5 | -5
CC(C)COC(=O)c1ccc2c(c1O)C(=O)c1ccccc1C2=O
    16 | 92* | 5 | ? | 5 | 93* | -58
CCOC(=O)C(NC(C)=O)(Nc1ccc(S(=O)(=O)Nc2nccs2)cc1)C(F)(F)F (configuration not stated)
    · | 9.3 | · | 4142 | 5 | 5 | -4
CC(C)(C)NC(=O)C(c1ccc(F)cc1)N(Cc1ccco1)C(=O)Cn1nnc(-c2cccs2)n1 (configuration not stated)
    1 | -3.7 | -3 | 4438 | -7 | -13 | -18
COc1cc2c(cc1OC)CN(Cc1cc(=O)n3c(-c4ccccc4)csc3n1)CC2
    6 | 0.9 | 18 | 4889 | -1 | 5 | -17

Next section; the last five above are carried over.
Order of results: Mtb hypoxia rep growth | RN4220 kill | Mtb hypoxia rep | Autofluor counter | BJeLR lethal | ugtP null kill | PrP 5UTR inh
C=CCNc1nc(Nc2ccc(OC)cc2OC)nc(OCC)n1
    · | 2.0 | · | 3241 | 1 | 5 | -5
CC(C)COC(=O)c1ccc2c(c1O)C(=O)c1ccccc1C2=O
    16 | 92* | 5 | ? | 5 | 93* | -58
CCOC(=O)C(NC(C)=O)(Nc1ccc(S(=O)(=O)Nc2nccs2)cc1)C(F)(F)F (configuration not stated)
    · | 9.3 | · | 4142 | 5 | 5 | -4
CC(C)(C)NC(=O)C(c1ccc(F)cc1)N(Cc1ccco1)C(=O)Cn1nnc(-c2cccs2)n1 (configuration not stated)
    1 | -3.7 | -3 | 4438 | -7 | -13 | -18
COc1cc2c(cc1OC)CN(Cc1cc(=O)n3c(-c4ccccc4)csc3n1)CC2
    6 | 0.9 | 18 | 4889 | -1 | 5 | -17
CCOc1ccccc1NC(=O)CN(c1ccc(OC)cc1)S(=O)(=O)c1c(C)noc1C
    2 | 0.9 | 3 | 16905* | 19 | 9 | -18
CC(C)CC1NC(=O)N(CC(=O)N2CCN(S(=O)(=O)c3ccc4ccccc4c3)CC2)C1=O (configuration not stated)
    · | -1.0 | · | 2196 | 15 | -4 | -9
CCN1CCN(c2ccc(S(=O)(=O)N(CC)CC)cc2[N+](=O)[O-])CC1
    -1 | 5.8 | 18 | 2534 | -12 | 5 | -15
Cc1ccccc1N=Cc1c(O)n(-c2nccs2)c(=O)c2ccccc12
    2 | 18 | -2 | 2533 | -9 | -10 | -9
C=CCn1c(SCC(=O)N2CCCC2)nc2scc(-c3cccs3)c2c1=O
    · | · | · | 21895* | 3 | · | -6
Cc1ccc(C(=O)N2CCCC(Nc3ccc(F)cc3)C2)cc1C (configuration not stated)
    -7 | 1.7 | 9 | 3929 | -3 | 0 | -24
COc1ccc(C(=O)NCCSCc2ccc(C)cc2)cc1
    12 | -0.5 | 4 | 3318 | -8 | -2 | -3
COc1ccc(Br)cc1CN1CCN(C(=O)c2ccc(F)cc2)CC1
    2 | 3.9 | -2 | 4548 | 5 | 1 | -38
